AmpC nodet inh – Promiscuous and Specific Inhibitors of AmpC Beta-Lactamase (assay without detergent). P00811. AmpC nitrocefin hydrolysis, absorbance 480 nm, no detergent; potencies from a single point are estimates. Potency, µM (doses to about 28.7 µM), without a hit: at the highest dose activity change, negative = inhibition. 1.8% of 71,000 active; active = falling curve, for most hits resting on a single point; inconclusive = weak or doubtful change; inactive = flat or rising curve; further: % of control where 0% means no effect; about half of the hits show no inhibition at the top dose; a quarter of the inactives give rising signals
Target sequence (P00811 whole entry, looked up): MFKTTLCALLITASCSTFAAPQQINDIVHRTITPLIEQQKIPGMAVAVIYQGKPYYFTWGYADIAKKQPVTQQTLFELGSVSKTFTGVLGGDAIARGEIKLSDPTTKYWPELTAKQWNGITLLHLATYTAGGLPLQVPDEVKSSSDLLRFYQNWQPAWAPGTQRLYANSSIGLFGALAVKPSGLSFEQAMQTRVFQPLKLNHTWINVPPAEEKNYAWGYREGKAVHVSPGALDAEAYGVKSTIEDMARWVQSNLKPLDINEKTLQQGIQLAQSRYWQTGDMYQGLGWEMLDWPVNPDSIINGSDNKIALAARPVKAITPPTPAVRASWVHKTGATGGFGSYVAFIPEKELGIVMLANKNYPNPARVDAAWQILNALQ
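AmpC, 20 mM phosphate pH 7.0; 15 min cpd preinc, RT; start with nitrocefin (800 uM stock); A480 kinetic read, 20 s intervals, 4 min. No-enzyme wells = negative control.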
* marks the source's active call; other numbers are inactive results; [ ] = dose if it differs, or a comment. Potency means the concentration at half of the fitted maximal effect. These rows are one share of the data; count on the stated rates, not on these rows.

A first look, 19 compounds:
SMILES	AmpC nodet inh
CC(=O)OC[C@H]1O[C@@H](n2ccc(=O)[nH]c2=S)C(OC(C)=O)C1OC(C)=O (stereo partly drawn)	7%
CCOc1ccccc1NC(=O)CN(c1cc(C)cc(C)c1)S(=O)(=O)c1c(C)noc1C	-9%
COc1ccc(NC(C)=O)c2nc(C)c(C)nc12	2%
O=C(NCc1ccco1)Nc1ccccc1Cl	-10%
CC(C(=O)Nc1cccnc1)N1C(=O)c2ccccc2C1=O (stereo not drawn)	-10%
COc1ccc(S(=O)(=O)NCC(c2cccnc2)N2CCN(C)CC2)cc1C (stereo not drawn)	11%
NCCCCCc1nnc(SCc2cccc(Cl)c2)o1	20%
COCCn1cc(C(=O)NCCCN2CCC(C)CC2)c2c3ccccc3n(C)c2c1=O	66%
CCc1nnc2c3cnn(-c4ccc(C)c(C)c4)c3ncn12	-16%
C/C=C/c1ccc(OCCSc2nc(C)cc(=O)[nH]2)c(OC)c1	40%
CN(C)c1ccc(CNn2cnnc2SCc2ccc(F)cc2)cc1	55%
NC(=O)CSc1cn(CCNC(=O)c2cccs2)c2ccccc12	38%
COc1cc(OC)cc(-c2nc3nc(C)c(CCC(=O)O)c(C)n3n2)c1	17%
CN(C)C(=O)c1ccc(-c2nccc(N(C)Cc3ccco3)n2)cc1	32%
CCCCN(C)CCCNC(=O)CS(=O)Cc1nc(-c2ccc(OC)c(OC)c2)oc1C (stereo not drawn)	24%
C[C@@H](CN1c2ccccc2Sc2ccccc21)N(C)C	16%[12.8 µM]
CCOC(=O)c1c(-c2cccs2)csc1NC(=O)CN1CC(C)OC(C)C1 (stereo not drawn)	80%
COC(=O)[C@@]1(Cc2ccc(F)cc2)[C@H]2c3cc(C(=O)N(C)C)n(CCSCCO)c3C[C@H]2CN1C(=O)c1ccccc1	176%
O=C(O)CCC(=O)N(Cc1cccnc1)Cc1cccc(F)c1	27%

The listing (from the top)
SMILES	AmpC nodet inh
CC(=O)OC[C@H]1O[C@@H](n2ccc(=O)[nH]c2=S)C(OC(C)=O)C1OC(C)=O (stereo partly drawn)	7%
CCOc1ccccc1NC(=O)CN(c1cc(C)cc(C)c1)S(=O)(=O)c1c(C)noc1C	-9%
COc1ccc(NC(C)=O)c2nc(C)c(C)nc12	2%
O=C(NCc1ccco1)Nc1ccccc1Cl	-10%
CC(C(=O)Nc1cccnc1)N1C(=O)c2ccccc2C1=O (stereo not drawn)	-10%
COc1ccc(S(=O)(=O)NCC(c2cccnc2)N2CCN(C)CC2)cc1C (stereo not drawn)	11%
NCCCCCc1nnc(SCc2cccc(Cl)c2)o1	20%
COCCn1cc(C(=O)NCCCN2CCC(C)CC2)c2c3ccccc3n(C)c2c1=O	66%
CCc1nnc2c3cnn(-c4ccc(C)c(C)c4)c3ncn12	-16%
C/C=C/c1ccc(OCCSc2nc(C)cc(=O)[nH]2)c(OC)c1	40%
CN(C)c1ccc(CNn2cnnc2SCc2ccc(F)cc2)cc1	55%
NC(=O)CSc1cn(CCNC(=O)c2cccs2)c2ccccc12	38%
COc1cc(OC)cc(-c2nc3nc(C)c(CCC(=O)O)c(C)n3n2)c1	17%
CN(C)C(=O)c1ccc(-c2nccc(N(C)Cc3ccco3)n2)cc1	32%
CCCCN(C)CCCNC(=O)CS(=O)Cc1nc(-c2ccc(OC)c(OC)c2)oc1C (stereo not drawn)	24%
C[C@@H](CN1c2ccccc2Sc2ccccc21)N(C)C	16%[12.8 µM]
CCOC(=O)c1c(-c2cccs2)csc1NC(=O)CN1CC(C)OC(C)C1 (stereo not drawn)	80%
COC(=O)[C@@]1(Cc2ccc(F)cc2)[C@H]2c3cc(C(=O)N(C)C)n(CCSCCO)c3C[C@H]2CN1C(=O)c1ccccc1	176%
O=C(O)CCC(=O)N(Cc1cccnc1)Cc1cccc(F)c1	27%
CCc1cc(Br)ccc1N1C(=O)C2CC=CCC2C1=O (stereo not drawn)	15%
COCCn1c(=O)c(-c2ccccc2)nc2cncnc21	38%
c1ccc(Sc2nc(N3CCCCC3)nc(N3CCCCC3)n2)nc1	67%
C=Cn1ccnc1P(=S)(c1nccn1C=C)C1CCCCC1	85%
CCc1ccccc1NC(=O)c1cnc2n(c1=O)CCS2	38%
O=C(CCc1ccccc1)Nc1cc(Cl)ccc1O	-16%
Cc1ccc(N2C(=O)c3ccccc3C2O)nc1 (stereo not drawn)	4µM*[single pt active]
O=C(O)[C@@H]1CCCN[C@H]1C(=O)O	-1%
Cn1cc(CN2CCN(c3ccccc3)CC2)c2ccccc21	44%
O=C1C2CC=C(Cl)CC2C(=O)N1CCc1ccccc1 (stereo not drawn)	-9%
CC1=C(O)C(=O)[C@H]2O[C@@H]2C1=O	1%
COCCn1c(C)cc(C(=O)CSc2nnc3ccccn23)c1C	1%
Cc1ccc2c(c1)N(CC(=O)N1CCc3ccccc3C1)C(=O)CO2	18%
Cc1ccc(OCC(=O)N2CCN(C)CC2)c(Br)c1	1%
COc1ccccc1CNC(=O)C1CCCN1S(=O)(=O)c1cccc2cccnc12 (stereo not drawn)	54%
CCCNS(=O)(=O)c1ccc(CCC(=O)N2CCC(C)CC2)cc1	19%
O=C(Cn1[nH]c(=O)c2ccccc2c1=O)Nc1ccc2c(c1)CCC2	2%
c1coc(CNc2c3c(nc4ncnn24)CCCC3)c1	-2%
CCNc1ncc2nc(CCc3ccccc3)c(=O)n(CCC#N)c2n1	32%
CCCC(NC(=O)CNC(=O)C(C)(C)C)C(=O)O (stereo not drawn)	-4%
CC(C)=CC(=O)OCC(=O)Nc1ccc(F)cc1Cl	-9%
COC(=O)Cc1c(C)nc2nc(-c3ccc(OC)cc3)[nH]n2c1=O	-9%
Cc1cccc(N2CCN(C(=O)c3cc4c(=O)[nH]c5ccccc5c4n3C)CC2)c1C	46%
Cc1ccc(-n2nc3c([n+]2[O-])CCc2c-3no[n+]2[O-])cc1	2%
O=C(O)COc1ccc2occ(C(=O)c3ccccc3)c2c1	1%
CC1(C)N=C2C(=[N+]1[O-])CCC/C2=N\O	-11%
CCC(=O)Nc1ccc(S(=O)(=O)N2CCc3ccccc3C2)cc1	3%
O=C(CS(=O)(=O)c1cn(Cc2cccc(F)c2)c2ccccc12)N1CCCCC1	38%
NC(=O)Cc1c[nH]c2cccc(O)c12	-1%

Random excerpt: two compounds from above, in no set order.
SMILES	AmpC nodet inh
O=C(O)COc1ccc2occ(C(=O)c3ccccc3)c2c1	1%
Cc1cccc(N2CCN(C(=O)c3cc4c(=O)[nH]c5ccccc5c4n3C)CC2)c1C	46%

Next part.
SMILES	AmpC nodet inh
COc1ccc(N(CC(=O)Nc2cccc(SC)c2)S(C)(=O)=O)cc1	10%
CCOC(=O)N1CCN(CC(O)COCC2=CCC3CC2C3(C)C)CC1 (stereo not drawn)	113%
CCCSc1nnc(-c2cccc(S(=O)(=O)N(C)C)c2)n1-c1cc(OC)ccc1OC	145%
CCN1CC2CCCC3(C1)C(=O)NC1(CCCCC1)N=C23 (stereo not drawn)	-3%
COc1ccc(-c2nc(C#N)c(NCc3ccccc3Cl)o2)cc1OC	32%
CCOC(=O)CCCNC(=O)CCNC(=O)c1ccc(OC)cc1	7%
Nc1nnc(C(=O)c2ccccc2N)s1	-12%
O=c1c(F)cn(C2CCCO2)c(=O)n1Cc1ccccc1F (stereo not drawn)	7%
Cc1ccc(CCN2CC(C(=O)NCCN3CCCCCC3)CC2=O)cc1 (stereo not drawn)	5%
Clc1ccc2c(NCCNC3CCCCC3)ccnc2c1	-3%[5.75 µM]
Cc1nc2ccccc2n1CC(=O)NCc1ccccc1	48%
O=C(COC(=O)C1=COCCO1)NCCCc1ccccc1	8%
Cc1cnc(CNc2ncncc2-c2c(C)noc2C)cn1	8%
CCc1cccc(NC(=O)NC2CCCCC2)c1	-9%
O=S(=O)(Cc1ccccc1)N1CCCCCC1	12%
COc1cc2c(cc1OC)C(C(=O)NCC1COc3ccccc3O1)C(c1cccnc1)N(C)C2=O (stereo not drawn)	64%
CCOC(=O)c1ccc(N2C(=O)CC(N3CC=C(c4ccc(F)cc4)CC3)C2=O)cc1 (stereo not drawn)	26%
Cc1cc(C)n(Cc2ccccc2F)c(=O)c1C#N	6%
CCN(CC)S(=O)(=O)c1ccc2c(c1)c(=O)c(C(=O)N1CCOCC1)cn2C	-2%
COc1ccc(CN(C(=O)c2ccco2)c2ccc(C)cc2)cc1OC	57%
CCC12CN3CC(CC)(CN(C1)C3c1ccccc1Cl)C2O (stereo not drawn)	11%
CCS(=O)(=O)N1CCCC(C(=O)NCCN(C)Cc2ccccc2)C1 (stereo not drawn)	-8%
CCOC(=O)CN(C(=O)CSc1nnc(-c2ccc(OC)c(OC)c2)o1)c1ccc(F)cc1	134%
C/C=C/c1ccc(OCCCn2cncn2)c(OC)c1	28%
Cc1cc(NC(=O)Nc2cccc(C(F)(F)F)c2)no1	1%
CC1=C(C(=O)OC2CCCC2)C(c2ccc(C)o2)C2=C(CC(c3cccs3)CC2=O)N1 (stereo not drawn)	-12%
COC(=O)C1=C(C)NC(C)=C(C(=O)OC)C1C(=O)OCCN1C(=O)c2ccccc2C1=O	21%
CCNC(=O)NC(=O)C(C)Oc1ccc(C(=O)OC)cc1 (stereo not drawn)	-7%
COCCOC(=O)C1=C(C)N(Cc2ccccc2)C(=O)NC1c1cccc(OC)c1OC (stereo not drawn)	59%
COC(=O)c1cc(OC)c(OC)cc1NC(=O)c1c(-c2ccccc2)noc1C	94%
CN1C(=O)c2ccccc2C(C(=O)O)C1c1cn(C)c2ccccc12 (stereo not drawn)	-4%
O=C(c1csnn1)N1CCC2(CC1)CN(Cc1ccncc1)C2	6%
COc1ccc(-n2c(=O)c(-c3cccs3)nc3cnc(Nc4cccc(OC)c4)nc32)cc1	11%
Cc1ccc(S(=O)(=O)N2CCN(C(=O)CSc3nc4ccccc4c(=O)[nH]3)CC2)c(C)c1	56%
CC(C)(C)NC(=O)CSc1nnc(Cc2ccc3c(c2)OCO3)n1C1CCCCC1	78%
CCC(=O)Nc1cc(-c2nnc(OC)c3ccccc23)ccc1N1CCOCC1	67%
O=C(O)CSC1=NCCN1	-9%
CCOc1ccc(C2C(C#N)=C(N)SC(N)=C2C#N)c(OCC)c1	-2%
COCCNC(=O)C(c1ccco1)N(C(=O)Cn1nnc2ccccc21)c1cc(C)ccc1C (stereo not drawn)	87%
O=C(Oc1ccccc1)c1ccccc1O	-7%
N#Cc1c(N)c(C(=O)c2ccccc2)n2c1CCCC2	-3%
CSc1nc(-c2ccco2)nn1C(=O)c1ccc(C)cc1	4µM*[single pt active]
COc1cc(C)c(S(=O)(=O)Nc2ccccc2F)cc1C	-19%
CCc1c(C)nc(N2CCN(Cc3ccccc3)CC2)[nH]c1=O	51%
CCCOc1ccc(-c2nc(C#N)c(N3CCN(C)CC3)o2)cc1	139%
O=S(=O)(NC1CCCC1)c1ccc(S(=O)(=O)N2CCCN(Cc3ccccc3)C2)cc1	3%
CCC(C)NC(=O)C1(C)CCC(=O)N1CCc1ccc(OC)c(OC)c1 (stereo not drawn)	7%
COC(=O)CSc1nnc(CNC(=O)c2cccs2)n1-c1cccc(C)c1	22%
O=C1CN(C(=O)CSc2nncn2-c2ccccc2)c2ccccc2N1	-6%
COc1ccc(OC)c(NC(=O)C2CC(=O)n3ncnc3N2)c1 (stereo not drawn)	2%
O=C(Oc1ccccc1)N1CCC[C@@]2(CCN(c3ccccn3)C2)C1	53%
O=C(O)c1ccc(COc2cccc(CO)c2)cc1	-6%
CC#C[C@@]1(O)CC[C@@H]2[C@@H]3CCC4=CC(=O)CCC4=C3[C@@H](c3ccc(N(C)C)cc3)C[C@]21C	105%
CCOC(=O)N1CCC(N(CCOC)C(=O)Nc2ccc(Cl)cc2)CC1	75%
O=C(CCn1cnc2ccccc2c1=O)Nc1nc2c(s1)CCCC2	-6%
O=C(NCCO)c1cc2ccccc2c(=O)s1	-4%
CCOc1ccc(C(=O)NCCN(C)C)cc1	-2%
Nc1nc(N)nc(CCCCc2nc(N)nc(N)n2)n1	4%[5.75 µM]
CC(C)OC(=O)CN1C(=O)c2ccccc2C1=O	10%
CN(C)c1ccc(C(C(=O)NC(C)(C)C)N(C(=O)c2csnn2)C2CC2)cc1 (stereo not drawn)	9%
New compounds follow:
SMILES	AmpC nodet inh
O=C(CN1CCN(C(=O)c2ccccc2)CC1)Nc1ncc(Br)cc1Br	39%
O=C(NC1CC2CCC(C1)N2C(=O)NC1CCCCC1)NC12CC3CC(CC(C3)C1)C2 (stereo not drawn)	98%
CCOCCCNC(=O)c1ccc(CS(=O)(=O)Cc2ccc(C)cc2)o1	17%
O=C(COc1ccc(-c2nnco2)cc1)NC1CCCc2ccccc21 (stereo not drawn)	49%
CCc1nnc(NC(=O)c2ccc(OC)cc2OC)s1	104%
Cc1cc(C)nc(SCCS(=O)(=O)Cc2ccccc2)n1	22%
CN(C)/C=C/C(=O)c1nnn(C2CCCCC2)c1NC1CCCCC1	108%
CC(=O)N1C(=O)N(C)C2C1N(C(C)=O)C(=O)N2C (stereo not drawn)	2%
O=C(COC(=O)c1ccccn1)Nc1cc(Cl)ccc1Cl	-4%
C[C@@H]1Cc2cc3c(cc2C(c2ccc(N)cc2)=NN1)OCO3	-8%
CCN(CC)S(=O)(=O)c1cccc(C(=O)Nc2nncs2)c1	9%
CCCCCCSC1=C(C#N)C(c2ccc(C)o2)CC(=O)N1 (stereo not drawn)	-4%
COc1ccc(CN(C)C2CCCCC2)cc1	-3%
CCOC(=O)N1CCC(NC(=O)c2ccc(OC)c(CN3CC(=O)N4CCCC4C3=O)c2)CC1 (stereo not drawn)	49%
Cc1ccc2cc(CCNS(=O)(=O)c3ccc(F)cc3)c(=O)[nH]c2c1	5%
Cn1c(SCC(=O)Nc2ccc(N3CCOCC3)cc2)nnc1-c1ccccc1	24%
C/C=C\c1ccc(OC)cc1	2%
CCc1ccc(NC(=O)CSc2nnc(Cc3cccn3C)n2-c2ccc(OC)cc2)cc1	70%
CCOCc1nnc(NC(=O)COC)s1	-5%
CN(C)CCNCCN	-3%[5.75 µM]
COc1ccc(OCCOCC(O)CN2CCOCC2)cc1 (stereo not drawn)	5%

Compound activity (PubChem)
